Screening data deposited in PubChem BioAssay by NMMLSC.
Bead autofluor: counter-screen for toxin protease inhibitors: compound fluorescence; compound autofluorescence counterscreen, microsphere flow cytometry; active compounds read high; fluorescence intensity (no concentration beside the values); actives 3.1% (n = 360,000);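 active = at least 3 SD above the mean of all compounds, about 16000 in these data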;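 also: 100 nL of 1 mM stock went into each well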
Numbers without * were called inactive. An excerpt; rates above refer to the full screens.

compound,Bead autofluor
CNC(=O)c1ccc(CN(C)C(=O)c2cc(C3CC3)nc3c2cnn3C(C)C)cc1,2853
CN1CCC(C)(C(=O)Nc2cccc3c2CCCC3)C1 (stereo unspecified),3763
CC1(C(=O)NS(=O)(=O)c2cccc(Cl)c2)CCN1C(=O)CC1CC1 (stereo unspecified),3804
COC(=O)C1CCN(S(=O)(=O)c2c[nH]c(=O)[nH]c2=O)CC1,2943
CN1CCN(C(=O)c2ccc(Cc3cn(C)c4ccccc34)nc2)CC1,3645
COc1ccccc1-c1csc(C(O)c2cccc(Cl)c2)n1 (stereo unspecified),3710
O=C(CCCc1ccccc1)NCCS(=O)(=O)N1CCN(c2ccccc2)CC1,3617
COc1ccc(CN2C[C@@H](CO)O[C@@H](n3cnc4c(N(C)C)ncnc43)C2)cc1,4031
COc1ccc(NC(=O)N(C)C[C@H]2OCc3cnnn3CCCC(=O)N([C@@H](C)CO)C[C@H]2C)c(OC)c1,3782
COc1cccc(-c2cnc(C(O)c3ccc(SC)cc3)[nH]2)c1 (stereo unspecified),2900
O=C(Nc1nnc([C@@H]2C[C@H](O)[C@@H](CO)O2)s1)c1cccc(Oc2ccccc2)c1,3759
Cc1ccc2c(CC(=O)Nc3ccc4nc(N5CCOCC5)sc4c3)coc2c1,3084
CN(C)CCN(Cc1ccccc1)C(c1cc2ccccc2o1)c1nnnn1C(C)(C)C (stereo unspecified),6439
COc1cccc(C(O)c2nc(-c3ccc4ccccc4c3)cs2)c1 (stereo unspecified),3820
COc1ccc(C(C)(O)c2nc(-c3cccc(NC(C)=O)c3)cs2)cc1 (stereo unspecified),3897

Of the compounds above, these contain a Cl atom:
compound,Bead autofluor
CC1(C(=O)NS(=O)(=O)c2cccc(Cl)c2)CCN1C(=O)CC1CC1 (stereo unspecified),3804
COc1ccccc1-c1csc(C(O)c2cccc(Cl)c2)n1 (stereo unspecified),3710

Other results follow:
compound,Bead autofluor
Cc1ccc(C(=O)OCC(=O)NCc2ccc(Cl)cc2)s1,3883
CNC(=O)C1Cc2c(-c3ccc(Cl)cc3)ccnc2O1 (stereo unspecified),3603
O=C(NCc1cccnc1)C1Cc2c(-c3ccc(Cl)cc3)ccnc2O1 (stereo unspecified),3707
CC(C)[C@@H]1Cc2[nH]n(C)c(=O)c2[C@H](c2ccc(Cl)cc2)O1,6569
COc1ccc(-c2csc(C(O)(c3ccccc3)C(F)(F)F)n2)cn1 (stereo unspecified),2971
COC(=O)C1Cc2c([nH]c3ccccc23)C2CCC(=O)N12 (stereo unspecified),3899
C#CCOCC1CNC(=S)O1 (stereo unspecified),3485
COc1ccc(C(=O)N2CCCC(c3cc(C(=O)NCc4ccccc4)no3)C2)cc1 (stereo unspecified),3524
COc1ccc(C(O)c2nc(-c3ccc(F)cc3OC)cs2)cc1 (stereo unspecified),3652
O=[N+]([O-])c1nccn1CC(O)CN1CC1 (stereo unspecified),4249
COc1ccccc1-c1cc2nc(-c3ccccc3)cc(N3CCN(C(=O)c4ccco4)CC3)n2n1,3780
O=C(CC1(O)C(=O)Nc2ccc(Br)cc21)c1ccccc1 (stereo unspecified),3775
Cn1c(=O)n(C)c2cc(CNC(=O)[C@H]3O[C@@H](n4ccc(=O)[nH]c4=O)[C@H](O)[C@@H]3O)ccc21,4576
CCCNC(=O)C1(C)CCCN(C(=O)c2cc(F)cc(F)c2)C1 (stereo unspecified),2769
Cc1ccc(S(=O)(=O)NN=C(c2ccccc2)c2cccs2)cc1,3716
CCCCN(C=O)c1c(CC)nc2ccc(C(=O)NCCOc3ccc(OC)cc3)cn12,3842
Cc1ccccc1OCCOC(=O)c1cc(S(=O)(=O)N2CCOCC2)ccc1C,2796
COc1ccc(Cc2c(-c3ccc(C)cc3)nc3c(C)cc(Br)cn23)c(C)c1,7286
CCOC(=O)C1(C)CCN1C(=O)c1ccc2ccccc2c1 (stereo unspecified),3591
COc1ccc(C(=O)c2[nH]c(N)c(C(=O)NCCc3c[nH]c4ccccc34)c2-c2ccccc2Br)cc1,6056
CC1CC2(CC(CN(C3CCCCC3)C3CCCCC3)OC2=O)C(=O)O1 (stereo unspecified),5915
COc1ccc(-c2csc(C(NC(C)=O)c3ccccc3)n2)cn1 (stereo unspecified),3415
Cc1ccc(CN2CCC[C@]3(N[C@H](c4ccccc4)[C@@H]4C(=O)N(Cc5ccccc5)C(=O)[C@@H]43)C2=O)cc1,3871
CCCCN(C(C)=O)c1c(CC)nc2ccc(C(=O)NCCCN(C)C)cn12,4073
CCOC(=O)C1CCCN(C(=O)c2cc(F)cc(F)c2)CC1 (stereo unspecified),3868
O=C(Cc1ccccc1)NS(=O)(=O)c1ccccc1,6073
CNc1cncc(-c2cc(OC)ccc2OC)n1,3750
CCCc1c(-c2ccc(F)cc2F)ncn1Cc1ccccc1OC,6104
CCOc1ccc(CCN2C(=S)N([C@@H](CC(C)C)CN3CCC[C@@H]3CN3C(=S)NC[C@@H]3CC(C)C)C[C@@H]2CC(C)C)cc1,5378
COC(=O)[C@H]1C[C@H](OC(=O)NCc2ccc(OC)c(OC)c2)[C@@]2(O)CN(S(=O)(=O)c3ccc(C)cc3)CC2[C@H]1C(=O)OC (stereo partly specified),3782

Some of the entries above in another layout:
CCOC(=O)C1(C)CCN1C(=O)c1ccc2ccccc2c1 (stereo unspecified)
- Bead autofluor: 3591
COc1ccc(C(=O)c2[nH]c(N)c(C(=O)NCCc3c[nH]c4ccccc34)c2-c2ccccc2Br)cc1
- Bead autofluor: 6056

(list continues)
compound,Bead autofluor
FC(F)C(F)(F)Oc1cccc(Nc2nccn3c(-c4cccc5cccnc45)cnc23)c1,4040
CC(=O)Nc1ccc(CN(C)c2c(C)nc3ccc(C(=O)NC4CCN(Cc5ccccc5)CC4)cn23)cc1,3576
CC1(C(=O)NCc2ccc(Cl)cc2)CCN1C(=O)Cc1cccc2ccccc12 (stereo unspecified),3829
CCc1ncc(C(O)c2ccc(Cl)cc2)n1Cc1ccccc1 (stereo unspecified),2926
CSc1ccc(CN2CCC(N3CCC(C(=O)NC4CC4)CC3)CC2)cc1,6658
CCCCn1nnnc1C(c1cc2ccccc2o1)N1CCN(c2ncccc2C#N)CC1 (stereo unspecified),6096
NS(=O)(=O)c1ccc(N2C(=O)CCCC2=O)cc1,2959
CC(C)C[C@H]1CN(CCCC[C@H]2CNC(=O)C(=O)N2CCc2ccccc2)C(=O)C(=O)N1CC1CCCCC1,6581
CCNC(=O)C1(C)CCN(C(=O)c2c(-c3ccccc3)noc2C)C1 (stereo unspecified),3686
Cn1c(=O)c2cc(NC(=O)NCc3ccc(Cl)cc3Cl)ccc2n1Cc1ccccc1,2851
COc1cc(OC)cc(C(=O)N2CCN(S(=O)(=O)c3ccc4c(c3)OCCO4)CC2)c1,3743
CC(=O)N1CCc2nc3ccccc3cc21,4347
Cc1ccc(S(=O)(=O)N2C[C@H]3C(=O)C[C@@H](c4ccccc4F)N(S(=O)(=O)c4ccc(C)cc4)[C@H]3C[C@H]2c2ccccc2F)cc1,4463
Cc1ccc([C@@H]2CC(=O)[C@@H]3CN(S(=O)(=O)c4ccc(C)cc4)[C@H](c4ccccc4F)C[C@@H]3N2S(=O)(=O)c2ccc(C)cc2)cc1,4388
CCCS(=O)(=O)NC(=O)C1(C)CCCN(C(=O)c2cc(-c3cccs3)oc2C)C1 (stereo unspecified),3803
CN(C)C(=O)C1=NOC2(C1)C(=O)Nc1ccccc12 (stereo unspecified),5313
CSc1ncnc2c1ncn2CCCNCC1CCCO1 (stereo unspecified),3489
CCNC(=O)C1CCCN(C(=O)c2ccccc2)CC1 (stereo unspecified),3041
COC(=O)c1ccc2nc(-c3ccc(C)cc3)c(Cc3ccccc3OC)n2c1,6333
CCCCCCCCN1C(=O)[C@H](CC(=O)NCC23CC4CC(CC(C4)C2)C3)C[C@@]2(C(=O)OC)CCCCC=C12,5658
CCOC(=O)Cc1ccc(Nc2nc(NCc3cccs3)nc3ccsc23)cc1,4033
CC(=O)N1C[C@@H](CO)[C@@H](N(C)C(=O)c2ccco2)C[C@H]1c1ccccc1,6134
CC(C)(C)OC(=O)N1CCc2onc(-c3ccc([N+](=O)[O-])cc3)c2C1=O,3035
CN(C)CCNc1ncnc2c1ncn2[C@H]1CN(Cc2cccnc2)C[C@@H](CO)O1,3878
O=C1NCN(c2ccccc2)C12CCN(C(c1ccccc1)c1nnnn1-c1ccc3c(c1)OCCO3)CC2 (stereo unspecified),4123
O=C(Nc1cccc(Cl)c1Cl)c1csc([C@H]2C[C@H](O)[C@@H](CO)O2)n1,3795
CC(=O)Nc1sc(C)c(C)c1C(=O)OCC(=O)Nc1ccccc1C(F)(F)F,3766
O=C(c1[nH]c(C(F)(F)F)nc1-c1ccccc1)N1CCN(C/C=C/c2ccccc2)CC1,5948
CCNC(=O)C1(C)CCCN(Cc2cccc3ccccc23)C1 (stereo unspecified),3519
O=C(NCCCCO)c1c(-c2ccccc2)oc2c1C(OCCCCCO)CCC2 (stereo unspecified),4186
O=C(Cc1ccc(F)cc1)Nc1cc(S(=O)(=O)N2CCOCC2)ccc1N1CCCCC1,3457
C[C@H](CO)N1C[C@H](C)[C@H](CN(C)C(=O)CC2CC2)Oc2cc(Br)ccc2S1(=O)=O,3901
COCCNC(=O)C1(C)CCCN(C(=O)c2cc(C)oc2C)C1 (stereo unspecified),2829
N#Cc1ccc(-c2nc3ccc(Cl)cn3c2Cc2ccsc2)cc1,5413
COc1ccc2c(c1)C(=O)O[C@@H](c1ccccc1)C[C@@H](O)C(=O)CC2,5956
CCCCCCN1C[C@H](O)[C@@H](n2cc(-c3ccc(F)cc3)nn2)C[C@@H]1c1ccccc1,3898
COc1cc(OC)c(C(=O)Nc2cc(S(=O)(=O)N3CCOCC3)ccc2N2CCOCC2)cc1OC,3424
O=c1cc(CN(Cc2ccccc2)Cc2ccccc2)c2ccccc2o1,6715
S=C1SCN(CCc2ccccc2)CN1CCc1ccccc1,2783
CN(CCCn1cnc2c(OCc3ccccc3)ncnc21)Cc1ccco1,3590
CCCCNC(=O)C1(C)CCCCN1C(=O)c1ccno1 (stereo unspecified),3930
Cc1ccc(Cc2c(-c3ccc(Cl)cc3)nc3cc(C)c(Br)c(C)n23)cc1,4933
CC(=O)Nc1cc(-c2ccc(N(C)C)cc2)cn2c(-c3ccc(F)cc3)cnc12,2969
Cc1cccc(C)c1NC(=O)CNC(=O)CNC(=O)c1ccc2ccccc2c1,2766
Cc1ccc(Cc2c(-c3ccc(Cl)cc3)nc3c(C)cc(Br)cn23)cc1,6410
CCN(CC)S(=O)(=O)c1ccc(-c2cn3ccccc3n2)cc1,3039
Cc1ccc(C(O)c2ncc(-c3cccc(C(F)(F)F)c3)[nH]2)cc1 (stereo unspecified),4020
CC1=C(C(=O)N2CCCCCC2)CC(CC(=O)NCCc2ccccn2)C(=O)N1CCCN1CCCC1=O (stereo unspecified),5596
CCCC(=O)N1CCC1(C)C(=O)NCc1ccccc1SC (stereo unspecified),3795
OC(c1ccc(F)c(F)c1)c1nc(-c2ccccc2)cs1 (stereo unspecified),3027
COc1ccc(C(O)c2ncc(-c3ccccc3)[nH]2)c(OC)c1 (stereo unspecified),3071
CCCNC(=O)C1(C)CCCN(Cc2ccccc2-c2ccccc2)C1 (stereo unspecified),3591
CCOC(=O)C1=CCC(c2ccccc2)N(S(=O)(=O)c2ccccc2[N+](=O)[O-])C1 (stereo unspecified),6495
COc1ccccc1-c1cc2c(c3c1ccn3C)C1CCC2O1 (stereo unspecified),5495
CCc1nc2c(OCCOc3ccccc3)cccn2c1N(C)C(=O)C1CC1,4035
CCN(CC)C(=O)C1=C(C)N(Cc2ccc(OC)cc2)C(=O)C(CC(=O)NCc2cccc3ccccc23)C1 (stereo unspecified),3965
C[C@@H](NC(=O)C[C@@H]1C[C@@H]2c3cc(NS(=O)(=O)c4ccc(F)cc4)ccc3O[C@@H]2[C@@H](CO)O1)c1ccccc1,3692
Cc1ccc(S(=O)(=O)Nc2ccc3c(c2)C(=O)N([C@@H](C)CO)C[C@@H](C)[C@@H](CN(C)C(=O)NC(C)C)OCCCC[C@H](C)O3)cc1,5963
COc1ccc(-c2[nH][nH]c(=O)c2NC(=O)c2ccccc2Br)cc1,4018
COc1ccc(N2c3ccccc3CN(Cc3ccccc3)[C@@H](C)[C@H]2Cc2cccnc2)cc1,3629

Next entries follow.
compound,Bead autofluor
CC1(C(=O)NS(=O)(=O)c2cccc(C#N)c2)CCN1C(=O)Cc1ccc(Cl)cc1Cl (stereo unspecified),3583
COC(=O)C1C2OC(C(Br)C2Br)C1C(=O)OC (stereo unspecified),3931
CC1(C(=O)Nc2ccc3c(c2)OCO3)CCN1C(=O)c1ccccc1 (stereo unspecified),3643
c1cc(-c2cnc3cccnn23)c2cccnc2c1,2767
COc1ccc([C@H]2CC(=O)C[C@@H](CCn3cc(CCc4ccccc4)nn3)O2)cc1,5549
C=C(C)Cn1c2ccc(NC(=O)NCc3ccccc3)cc2c(=O)n1C,3981
O=S(=O)(c1ccc(Cl)cc1)N1Cc2cc(Br)ccc2-n2nncc2C1,6049

Reformatted as labelled records: entries from further up
> COC(=O)C1C2OC(C(Br)C2Br)C1C(=O)OC (stereo unspecified)
  Bead autofluor: 3931

> CC1(C(=O)Nc2ccc3c(c2)OCO3)CCN1C(=O)c1ccccc1 (stereo unspecified)
  Bead autofluor: 3643

> c1cc(-c2cnc3cccnn23)c2cccnc2c1
  Bead autofluor: 2767

> COc1ccc([C@H]2CC(=O)C[C@@H](CCn3cc(CCc4ccccc4)nn3)O2)cc1
  Bead autofluor: 5549
